Compound activity from PubChem.
PINK1 expr mod – changes PINK1 expression | PINK1 immunofluorescence, high-content cytometry, 24 h | Potency, µM (top dose mostly 76.6 µM), for inactives: at the top dose activation (PINK1 increase), most hits filed as activators | actives 0.2% (n = 410,000); active = well fitted activation curve with a large enough effect; inconclusive = small, poorly fitted or top-dose-only effect; inactive = flat fitted curve, though single readings scatter; cell line not stated here;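 also: potency is read from the fitted curve at half-maximal effect; % of control where 0% means no effect; nearly all actives have a fitted effect of over 65% in size; a mitochondrial uncoupler was the plate control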
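Fluorescence from anti-PINK1 antibody, together with nuclear and cell stains, was scanned on a laser-scanning cytometer. Before staining, stable-line cells were incubated 24 hours with compounds at 5 concentrations; primary antibody 12 h at 10 degrees C.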
gsp antagonist – antagonizes gsp, the McCune-Albright syndrome mutation | Potency, µM (doses to about 76.9 µM), inactives show at the top dose activity change, negative = inhibition, most hits filed as inhibitors | AID 624288 | actives 0.4% (n = 340,000) | gsp-mutant cells, cAMP HTRF, 30 min; control for the full effect not named in the record; active = falling curve of any shape with a large fitted effect; inconclusive = falling curve, mostly with a smaller effect; inactive = flat or rising curve; cell line not stated here;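 also: intracellular cAMP measured with PDE inhibitor Ro 20-1724 present during compound exposure; potency is read from the fitted curve at half-maximal effect; % is scaled to controls: 0 for no effect and ±100 for the full control effect; nearly all actives have a fitted effect of over 65% in size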
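Cells, 2000/well, grown 16–24 h in DMEM 10% FBS with 0.5 mg/ml G418, then compounds plus […] (300 uM addition stock), 30 min at 37C. cAMP read by HTRF (cAMP-d2 and anti-cAMP antibody-K in lysis buffer) after 30 min RT.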
gsp ag – gsp mutant agonism; gsp mutant cells, cAMP HTRF, 30 min; control for the full effect not named in the record; Potency, µM (top dose mostly 76.9 µM), inactives show at the top dose activation (cAMP increase), hits mostly activators; actives 0.13% (n = 340,000); active = well fitted activation curve with a large enough effect; inconclusive = small, poorly fitted or top-dose-only effect, or another doubt; inactive = no such curve, though single readings can be large or run the other way; cell line not stated here;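 also: phosphodiesterase inhibitor Ro 20-1724 added with compounds to block cAMP breakdown; potency is read from the fitted curve at half-maximal effect; nearly all actives have a fitted effect of over 60% in size; about a fifth of the inactives were tested at one dose only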
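Cells stably selected in G418 were plated at 2000/well, grown 16-24 hr, then given compounds in DMSO with the PDE inhibitor […] (300 uM solution added) for 30 min at 37C; cAMP was read by HTRF.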
D2 ag – activates the human D2 dopamine receptor; P14416; AID 624465; actives 0.084% (n = 360,000); DiscoveRx PathHunter D2 beta-arrestin, luminescence, 90 min; 100% = 57 uM dopamine signal; activation, % (no concentration beside the values); in the data active = activation above about 40%; inconclusive = about 15% to 40%; inactive = below about 15%; also: compound concentration not given in the record; the text of the record calls up to 30% inactive
Target sequence (P14416 whole entry, looked up): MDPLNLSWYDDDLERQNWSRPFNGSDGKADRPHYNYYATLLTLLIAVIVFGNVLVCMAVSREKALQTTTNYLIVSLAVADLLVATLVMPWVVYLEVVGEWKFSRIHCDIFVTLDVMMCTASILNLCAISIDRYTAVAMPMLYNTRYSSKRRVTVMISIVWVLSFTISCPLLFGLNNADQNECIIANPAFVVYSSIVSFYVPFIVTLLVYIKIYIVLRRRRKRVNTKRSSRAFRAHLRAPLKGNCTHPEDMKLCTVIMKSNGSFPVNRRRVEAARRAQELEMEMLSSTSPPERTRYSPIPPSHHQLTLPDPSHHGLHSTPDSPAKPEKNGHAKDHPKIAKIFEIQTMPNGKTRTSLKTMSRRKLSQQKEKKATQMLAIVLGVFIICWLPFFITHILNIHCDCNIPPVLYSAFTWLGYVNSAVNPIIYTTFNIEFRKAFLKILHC
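Agonist mode: compounds alone added to overnight-plated D2 PathHunter cells for 90 min at 37 C, with 57 uM final dopamine (EC100) defining full response. Beta-arrestin recruitment detected by chemiluminescent reagent, read after 1 h at ambient temperature.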
Menin-MLL FL inh – displaces fluorescein MLL peptide from human menin | Fluorescence polarization, fluorescein-MLL peptide displacement from menin | FP activity change, % at 61.4 µM | 290,000 tested, under 10 active; inconclusive = falling polarisation curve, or a change in total fluorescence; inactive = total fluorescence flat and polarisation flat or rising; no compound was filed as active; the % refers to the polarisation; negative = inhibition;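 also: % of control where 0% means no effect; inhibitors lower the polarisation; unlabelled MLL peptide was the positive control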
ClpP mod – qHTS Assay for Activators of ClpP; purified B. subtilis ClpP, FRET peptide cleavage, 20 min; Potency, µM (highest dose often 57.5 µM), for the others: at the highest dose activity change, negative = active; actives 1.9% (n = 340,000); AID 651965, 2013; active = well fitted falling curve with a large enough effect; inconclusive = small, poorly fitted or top-dose-only effect; inactive = no such curve, though single readings can be large or run the other way; also: potency is read from the fitted curve at half-maximal effect; the source files actives as falling curves though it sought activators and does not explain the sign; nearly all actives have a fitted effect of over 65% in size; many hits overshoot -100%
Target sequence (P80244 whole entry, looked up): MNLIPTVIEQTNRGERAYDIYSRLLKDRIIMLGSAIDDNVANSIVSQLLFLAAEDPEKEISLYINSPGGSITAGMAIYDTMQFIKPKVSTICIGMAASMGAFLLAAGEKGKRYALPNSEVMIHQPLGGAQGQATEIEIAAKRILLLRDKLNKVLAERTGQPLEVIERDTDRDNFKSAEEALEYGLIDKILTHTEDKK
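Buffer: 100 mM Tris/HCl pH8, 100 mM KCl, 0.05% low protease BSA, 2.5% glycerol, 0.01% Tween-20. ClpP 10 microg/mL final; 20 min RT; delta FRET normalized to ADEP and DMSO controls.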
Sfp inh – Sfp phosphopantetheinyl transferase inhibition | Potency, µM, for the others: max response, negative = inhibition, usual class: inhibitors | Q9F4F7 | Biochemical Sfp PPTase activity, qHTS | AID 1490 | actives 3.5% (n = 310,000); active = well fitted inhibition curve with a large enough effect; inconclusive = small, poorly fitted or top-dose-only effect, or another doubt; inactive = no such curve, though single readings can be large or run the other way;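 also: the enzyme is Sfp with the accession as filed and its product quenches rhodamine fluorescence; potency is read from the fitted curve at half-maximal effect; 0% = enzyme reaction without inhibitor and -100% = no enzyme wells; top concentration of the series not given in the record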
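Fluorescence-quenching assay: 15 nM Sfp-PPTase preincubated 15 min at room temperature with compound, then 5 uM rhodamine-CoA and 12.5 uM BHQ-2-labelled YbbR peptide added. Fluorescence (ex 525/em 598 nm) read at start and after 30 min; difference gives rate.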
An asterisk follows results filed as active; ? = inconclusive; / = no result given; & = joins results of further samples; [ ] = dose if it differs, or a comment.

SMILES | PINK1 expr mod | gsp antagonist | gsp ag | D2 ag | Menin-MLL FL inh | ClpP mod | Sfp inh
N/C(CS(=O)(=O)c1ccccn1)=N\OC(=O)c1ccccc1Cl | -0.5% | 7% | -7%[15.4 µM] | 1.3 | -11 | / | -7%
COC(=O)CNC(=O)C1Nc2ccc(OC(F)(F)F)cc2C2C=CCC12 (stereo unspecified) | 1.3% | 1% | -7% | 0.8 | / | -1.0% | /
Cc1cccc(OCC(=O)N2CCC(N3CCCCCC3)CC2)c1 | / | 0% | 7% | 0.9 | 3.8 | -0.5% | -9%
COC(=O)[C@@]1(Cc2ccc(OC)cc2)[C@H]2c3cc(C(=O)N(C)C)n(CCSCCO)c3C[C@H]2CN1C(=O)c1ccccc1 | 1.9% | 3% | / | -3.0 | -1.8&-5.2 | -0.8% | 5%&6%
O=c1[nH]c(Nc2ccccc2)cc2cc(Br)ccc12 | 12% | -3% | / | 0.4 | / | -3.8% | /
O=c1ccc(-c2nc3cc(Cl)ccc3n2Cc2ccccc2)c[nH]1 | 3.0% | -13% | -86%[inhibitor] | 1.0 | 1.4 | / | 3%
CN(CCCNC(=O)C1CCCN(S(=O)(=O)c2cnc[nH]2)C1)c1ccccc1 (stereo unspecified) | 2.4% | -5% | -46%[inhibitor] | -1.8 | -1.9 | -0.4% | 11%
Cc1ccc(NC(=O)c2nc3nccc(C)n3n2)c(C)c1 | 0.0% | 13% | 15% | -5.3 | 0.9 | 1.0% | 13%
Cn1cc(/C(Cc2ccccc2)=N\O)c2ccccc21 | 7.7% | -17% | 5% | -2.0 | 3.8 | -6.2% | -10%
CCOC(=O)c1c(NCc2ccccc2)n[nH]c1C | -3.1% | 0% | 18%[15.4 µM] | 1.6 | 0.5 | 0.6% | 17%
Cc1ccc(S(=O)(=O)N2CCN(c3ccccc3)CC2)cc1 | -0.5% | 10% | 31%[15.4 µM] | 2.8 | -4.6 | -0.4% | 1%
CC(=O)N(C)c1ccc(NC(=O)C(c2ccccc2)c2ccccc2)cc1 | 3.9% | -13% | 11%[15.4 µM] | -4.7 | / | -1.4% | /
CC(C)c1cccc(-c2csc(C(C)(O)c3cccc(F)c3)n2)c1 (stereo unspecified) | 20% | / | / | 2.0 | / | 0.9% | /
Cc1nc(CCNC(=O)Cc2ccc(F)cc2)cs1 | -1.4% | 11% | 22% | 0.0 | 5.0 | -1.2% | 16%
CCOC(=O)c1[nH]c(C)c(C(=O)c2ccc(C)cc2)c1C | ? | 20% | -3% | -2.1 | 0.5 | -0.8% | 8%
O=C(Cc1ccc(F)cc1)NCc1cccnc1 | 0.1% | 0% | ? | 0.5 | 3.2 | 0.8% | 8%
COc1ccc(Cl)cc1NC(=O)CN(C)C(=O)c1ccc(N2CCCCC2)c([N+](=O)[O-])c1 | 4.1% | -17% | ? | -2.7 | / | 1.6% | /
O=C(C[n+]1ccccc1)Nc1ccccc1C(F)(F)F | 1.6% | 8% | -4% | -4.3 | -11 | -0.8% | 8%
Nc1ccc2nc(CCCCCCCCc3nc4ccc(N)cc4[nH]3)[nH]c2c1 | 3.2% | -4% | -15% | -5.2 | -5.7 | -14% | -1%
C=CCSc1nsc(NC(=O)Nc2cccc(C(C)=O)c2)n1 | 16µM* | 28µM* | -37% | 0.1 | -3.9 | / | 19%
NS(=O)(=O)c1cccc(NC(=O)/C=C/c2cccs2)c1 | 0.9% | -2% | -2%[15.4 µM] | 0.3 | -2.1 | -2.1% | 3%
COCCNc1ncnc2nc[nH]c12 | -0.9% | -5% | 0% | -0.5 | 1.2 | 0.2% | -1%
Cn1cnc([N+](=O)[O-])c1Sc1n[nH]c(N)n1 | -1.2% | 11% | 4% | -5.0 | -9.5 | 0.8% | 9%
CC(=O)N(C)c1ccc(NC(=O)Nc2cccc3ccccc23)cc1 | 0.2% | -1% | -12% | 2.9 | / | -13% | 3%
O=C(CCCN1C(=O)c2cccc3cccc(c23)C1=O)NCc1cccs1 | 2.2% | / | -5%[15.4 µM] | -1.7 | -0.3 | / | -7%
COc1cccc(Nc2ncc3ncc(=O)n(C[C@H]4CCCO4)c3n2)c1 | -0.7% | / | / | / | 3.3 | / | 31%[activator]
Cc1ccc(CN2CCNC(=O)C2CC(=O)O)cc1 (stereo unspecified) | 0.3% | 5% | -3% | -0.5 | -1.0 | -1.0% | 1%
CC(=O)c1ccc(OCCCOc2cccc3cccnc23)cc1 | -0.1% | -5% | -17% | -5.4 | 0.7 | -9.1% | 10%
Cc1cccc(NS(=O)(=O)c2coc(C(N)=O)c2)c1C | 1.7% | 5% | 17% | 3.7 | 6.6 | 1.1% | 10%
NC(=O)C1CCN(C2=C(NS(=O)(=O)c3ccccc3)C(=O)c3ccccc3C2=O)CC1 | -0.4% | -23% | -3% | 0.8 | 1.3 | / | 3%
NC(=O)C1(N2CCCCC2)CCN(CC(=O)Nc2ccccc2-c2ccccc2)CC1 | 3.1%[38.3 µM] | -4% | -2% | -1.4 | 2.0 | -2.7% | 10%
CC(C)OC(=O)c1cccc(C(=O)Oc2ccccc2)n1 | 0.7%[38.3 µM] | -5% | -53%[inhibitor] | -0.3 | -2.6 | 0.0% | 14%
CCc1cc2c(=O)n(Cc3ccco3)c(SCc3c(C)noc3C)nc2s1 | 18% | 4% | -39%[inhibitor] | -1.9 | 2.1 | -1.9% | -87%
CC(C(=O)N(C)CC(=O)Nc1ccccc1C(F)(F)F)N1C(=O)c2ccccc2C1=O (stereo unspecified) | 0.1% | 5% | 3% | -3.1 | / | 0.3% | /
COc1ccc(Br)cc1CN1CCSCC1 | 1.3% | -16% | 6%[15.4 µM] | -2.3 | -3.7 | 0.2% | -8%
CSCCC(NC(=O)COc1ccccc1)C(=O)OCc1ccc([N+](=O)[O-])cc1 (stereo unspecified) | 6.0% | -11% | -37%[inhibitor] | -2.6 | / | -2.1% | /
COc1ccc(CC(=O)N/N=C/c2cccs2)cc1OC | -2.7% | 1% | 3% | 8.8 | -0.7 | -0.4% | 7%
COc1c(O)ccc2c1CN1CCc3cc4c(cc3C1C2)OCO4 (stereo unspecified) | -1.3% | 0% | / | 6.9 | -9.2 | ? | 35µM*
COC(=O)C1=C(C)N=C2SC(C#N)=C(N)N2C1c1ccc(OC)cc1 (stereo unspecified) | 16% | 2% | -39%[inhibitor] | 0.0 | 7.9 | -1.6% | -10%
O=C(OCc1ccccc1)C1=NNC2C(=O)N(c3ccc(Br)cc3)C(=O)C12 (stereo unspecified) | -0.4% | ? | -3%[15.4 µM] | -1.5 | 0.2 | / | 14%
CN(C)S(=O)(=O)c1cccc(NC(=S)N(CCC#N)Cc2cccnc2)c1 | -0.2% | -5% | 15%[15.4 µM] | 1.6 | 4.8 | 0.0% | 6%
Cc1ccc([C@H]2C(C(=O)O)=C[C@@H](C(C)(C)C)N2S(=O)(=O)c2ccc(C)cc2)cc1 | 0.0% | 2% | / | 0.4 | / | 0.3% | /
CCC1(c2ccccc2)NC(=S)N(c2ccc(C)cc2)N1 (stereo unspecified) | -0.2% | -3% | ? | 3.4 | -3.6 | / | 50µM*
CSc1nc(C)cc(SC(C(C)=O)C(=O)Nc2ccccc2)n1 (stereo unspecified) | -0.9% | -4% | -38%[inhibitor] | -4.8 | 7.5 | 0.8% | 50µM*
Cc1nc(NCc2cccnc2)c2c3c(sc2n1)CC(C)CC3 (stereo unspecified) | -0.4% | 3% | -4% | 0.5 | 4.0 | -7.8% | -27%
CC(C)CC(=O)Nc1ccc(-c2nnn(CC(=O)NCc3ccco3)n2)cc1 | 2.8% | 8% | 4% | -2.9 | 1.9 | / | 13%
COc1ccc(OCC(=O)Nc2cccc(OC)c2)cc1 | -0.7% | -2% | -16% | 0.4 | 7.8 | -4.4% | -7%
CCN(CC)CCCSc1nc2ccccc2s1 | -0.9% | 19% | -8%[15.4 µM] | -1.4 | 1.0 | / | -57%
Cc1cc(NCCCOC(C)C)n2c(nc3ccccc32)c1C#N | 8.7% | -7% | 19% | 3.1 | 12 | 4.3% | 8%
Cc1cc(C)n2nc(C(=O)Nc3ccc4c(c3)CCC4)nc2n1 | 13% | -10% | 2%[15.4 µM] | -1.7 | 2.0 | / | 14%
COc1cc(C2NC(=O)NC(C)=C2C(=O)OC2CCCC(C)C2)ccc1O (stereo unspecified) | 1.1%[38.3 µM] | -1% | -44%[inhibitor] | -0.4 | -1.3 | -1.0% | -7%
CC(NC(=O)Oc1cccc2ccccc12)c1ccccc1 (stereo unspecified) | 4.4% | 4% | -1% | -0.5 | / | / | /
C=CS(=O)(=O)N(Cc1ccccc1)[C@H](CO)CC(C)C | 5.8% | 8% | / | 1.5 | / | 2.2%&1.6% | /
O=C(O)c1[nH]nc2c1COc1ccccc1-2 | -2.2% | 14% | -25% | -3.1 | 0.0 | ? | 11%
CCCCCCSc1cccc(-c2nc3cc(C)ccn3c2NCc2ccccc2)c1 | ? | 5% | ? | 0.5 | / | 4.3% | /
Cc1ccc(S(=O)(=O)N(C)C)cc1NC(=S)N(C)C1CCN(C)CC1 | -0.9% | 16% | ? | -1.4 | -13 | -1.4% | -11%

Sfp inh, what is marked active above
Structure	PINK1 expr mod	gsp antagonist	gsp ag	D2 ag	Menin-MLL FL inh	Sfp inh
COc1c(O)ccc2c1CN1CCc3cc4c(cc3C1C2)OCO4 (stereo unspecified)	-1.3%	0%	/	6.9	-9.2	35µM*
CCC1(c2ccccc2)NC(=S)N(c2ccc(C)cc2)N1 (stereo unspecified)	-0.2%	-3%	?	3.4	-3.6	50µM*
CSc1nc(C)cc(SC(C(C)=O)C(=O)Nc2ccccc2)n1 (stereo unspecified)	-0.9%	-4%	-38%[inhibitor]	-4.8	7.5	50µM*

Outcome played no part in choosing rows; 5.1% or so of the library scored in one or more.
